FGF22 binding: shifts melting point of recombinant human FGF22. AID 651658. calls only at 9.99 µM. 1.5% of 340,000 active. recombinant FGF22 thermal shift, SYPRO orange fluorescence; percent of sucrose octasulfate shift, DMSO zero;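 active = melting point raised past a set limit in the mean and every replicate; three in four hits are not shown here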
Target sequence (Q9HCT0 whole entry, looked up): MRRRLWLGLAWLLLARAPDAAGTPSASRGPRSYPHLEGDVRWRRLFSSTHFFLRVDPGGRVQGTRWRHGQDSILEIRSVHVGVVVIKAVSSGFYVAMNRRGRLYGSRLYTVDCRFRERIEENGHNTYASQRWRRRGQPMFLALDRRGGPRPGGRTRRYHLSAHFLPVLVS
Calls only; i = inactive.

SMILES	FGF22 binding
CC(=O)N(C)C[C@H]1Oc2cc(-c3cccc(F)c3)ccc2S(=O)(=O)N([C@H](C)CO)C[C@@H]1C	i
COc1ccc(S(=O)(=O)N(C)C[C@@H]2Oc3ncc(/C=C/c4ccccc4)cc3C(=O)N([C@H](C)CO)C[C@@H]2C)cc1	i
CC(C)CC#Cc1ccc2c(c1)O[C@H](CN(C)C(=O)Cc1cccnc1)[C@@H](C)CN([C@H](C)CO)S2(=O)=O	i
C/C=C/c1ccc2c(c1)O[C@@H](CN(C)C(=O)CN1CCOCC1)[C@@H](C)CN([C@@H](C)CO)S2(=O)=O	i
Cc1noc(C)c1NC(=O)Nc1ccc2c(c1)C(=O)N([C@@H](C)CO)C[C@H](C)[C@H](CN(C)Cc1ccc(Oc3ccccc3)cc1)O2	i
C[C@H](CO)N1C[C@H](C)[C@H](CN(C)Cc2ccccc2C(=O)O)Oc2ncc(C3=CCCC3)cc2C1=O	i
O=C(C[C@H]1C[C@H]2c3cc(NC(=O)NC4CCCC4)ccc3O[C@H]2[C@@H](CO)O1)NCc1ccccn1	i
C[C@@H]1CCCCO[C@H](CN(C)Cc2ccc(C(=O)O)cc2)[C@@H](C)CN([C@@H](C)CO)C(=O)c2cc(NC(=O)C3CCCCC3)ccc2O1	i
C[C@H]1CN([C@@H](C)CO)C(=O)c2cc(NS(=O)(=O)c3cn(C)cn3)ccc2O[C@@H]1CN(C)CC1CCCCC1	i
C[C@H]1CN([C@@H](C)CO)C(=O)Cc2cc(NS(=O)(=O)c3ccccc3)ccc2O[C@H]1CN(C)S(=O)(=O)c1ccc(F)cc1	i
C[C@H]1CCCCO[C@H](CN(C)C)[C@@H](C)CN([C@@H](C)CO)C(=O)c2cc(NC(=O)c3ccncc3)ccc2O1	i
CO[C@H]1CN(C)C(=O)c2cc(NC(=O)c3nc4ccccc4s3)ccc2OC[C@H](C)NC[C@H]1C	i
O=S(=O)(Cc1ccccc1)NCC[C@H]1CC[C@@H](NS(=O)(=O)c2ccccc2)[C@@H](CO)O1	i
O=C(C[C@H]1CC[C@@H](NC(=O)Cc2ccccn2)[C@H](CO)O1)NCCc1ccncc1	i
CN1C(=O)c2cc(NC(=O)c3cnccn3)ccc2OC[C@H]2O[C@@H](CC(=O)N[C@H]3CCN(Cc4ccccc4)C3)CC[C@H]21	i
Cc1cc(OC(=O)NCCc2ccc(F)cc2)ccc1F	i
CO[C@H]1CN(C)C(=O)c2ccc(NC(=O)C3CC3)cc2OC[C@@H](C)N(Cc2ccncc2)C[C@@H]1C	i
C[C@@H]1CCCCO[C@H](CN(C)S(=O)(=O)c2ccccc2)[C@H](C)CN([C@@H](C)CO)C(=O)c2cc(NS(=O)(=O)c3ccccc3)ccc2O1	i
Cc1noc(C)c1S(=O)(=O)N(C)C[C@@H]1OCCCC[C@@H](C)Oc2ccc(NS(=O)(=O)c3ccccc3)cc2C(=O)N([C@H](C)CO)C[C@@H]1C	i
CO[C@H]1CN(C)C(=O)c2ccc(NC(=O)C3CC3)cc2OC[C@@H](C)N(Cc2ccccc2)C[C@@H]1C	i
C/C=C/c1cnc2c(c1)C(=O)N([C@@H](C)CO)C[C@@H](C)[C@H](CN(C)C(=O)c1cccnc1)O2	i
CN(C)C(=O)[C@H]1[C@H](CO)[C@H]2Cn3c(cccc3=O)[C@@H]1N2CC1CCOCC1	i
C[C@H](CO)N1C[C@H](C)[C@H](CN(C)C(=O)Nc2cccc3ccccc23)Oc2ccc(NC(=O)CCCN(C)C)cc2C1=O	i
C[C@@H]1CCCCO[C@H](CN(C)C(=O)Nc2ccc(C(F)(F)F)cc2)[C@@H](C)CN([C@H](C)CO)C(=O)c2cc(NS(=O)(=O)c3ccc(Cl)cc3)ccc2O1	i
C[C@@H]1CN([C@@H](C)CO)C(=O)c2cccc(N(C)C)c2O[C@@H]1CN(C)Cc1ccccc1	i

Next structures follow.
SMILES	FGF22 binding
O=C(C[C@@H]1C[C@@H]2c3cc(NC(=O)CC4CC4)ccc3O[C@@H]2[C@@H](CO)O1)NCc1ccc(-c2ccccc2)cc1	i
COC(=O)C[C@@H]1C[C@@H]2c3cc(NC(=O)Nc4ccc(OC)cc4)ccc3O[C@@H]2[C@H](CO)O1	i
Nc1ncnc2c1ncn2[C@@H]1O[C@H](C(=O)N[C@@H](CCc2ccccc2)C(=O)N2CCN(C(=O)C(F)(F)F)CC2)[C@@H](O)[C@H]1O	i
O=C(c1ccccc1)N1C[C@H]2[C@@H](c3ccccc31)[C@H](CO)N2C(=O)c1ccccn1	i
C[C@H](CO)N1C[C@H](C)[C@@H](CN(C)C)Oc2c(NC(=O)Nc3ccc4c(c3)OCO4)cccc2C1=O	i
CCCNC(=O)Nc1ccc2c(c1)C(=O)N(C)C[C@@H](OC)[C@H](C)CN(S(C)(=O)=O)[C@@H](C)CO2	i
CCC(=O)Nc1ccc2c(c1)C(=O)N(C)[C@@H]1CC[C@@H](CC(=O)NCCCN(C)C)O[C@H]1CO2	i
C[C@H](CO)N1C[C@H](C)[C@H](CN(C)C(=O)Nc2cccc3ccccc23)Oc2c(NC(=O)c3cnccn3)cccc2C1=O	i
C[C@@H]1CN([C@H](C)CO)C(=O)CCCn2cc(nn2)CO[C@@H]1CN(C)Cc1ccc(Oc2ccccc2)cc1	i
N#C[C@@H]1[C@H](c2ccc(C3=CCCCC3)cc2)[C@H](CO)N1S(=O)(=O)c1ccccc1	i
CCCNC(=O)C[C@@H]1CC[C@@H]2[C@H](COC[C@H](O)CN2C(=O)c2ccc(F)cc2)O1	i
COc1ccc(CN(C)C[C@@H]2Oc3ccc(NC(=O)CCN4CCOCC4)cc3CC(=O)N([C@@H](C)CO)C[C@H]2C)cc1	i
COc1ccccc1NC(=O)N1C[C@@H](O)COC[C@H]2O[C@H](CC(=O)N3CCC(Cc4ccccc4)CC3)CC[C@@H]21	i
COc1cccc(S(=O)(=O)N2CCCCN3[C@@H](CO)[C@H](c4ccc(-c5ccccc5)cc4)[C@@H]3C2)c1	i
O=C(C[C@H]1C[C@H]2c3cc(NC(=O)Cc4ccncc4)ccc3O[C@H]2[C@H](CO)O1)NCCc1ccccc1	i
C[C@H]1CN([C@@H](C)CO)C(=O)c2cc(-c3cccc(C#N)c3)cnc2O[C@H]1CN(C)C(=O)C1CC1	i
Cc1noc(C)c1S(=O)(=O)Nc1ccc2c(c1)C(=O)N([C@@H](C)CO)C[C@H](C)[C@H](CN(C)Cc1ccc(-c3ccccc3)cc1)O2	i
COC(=O)c1ccc(CN2C(=O)[C@]3(OCCC=C[C@H]3C)c3cc(OC)ccc32)cc1	i
C[C@@H]1CCCCO[C@@H](CN(C)C(=O)Nc2ccc(C(F)(F)F)cc2)[C@H](C)CN([C@@H](C)CO)C(=O)c2cc(NC(=O)c3ccncc3)ccc2O1	i
CCCCc1c(-c2ccccc2OC)ncn1Cc1ccc(OC)cc1	i
CNC[C@@H]1Oc2ncc(C#CC3(O)CCCC3)cc2C(=O)N([C@@H](C)CO)C[C@H]1C	i
C[C@@H]1CN([C@@H](C)CO)C(=O)c2cc(NC(=O)Nc3cccc4ccccc34)ccc2O[C@@H](C)CCCCO[C@@H]1CN(C)CC1CCCCC1	i
C[C@@H]1CN([C@H](C)CO)C(=O)c2cccc(NC(=O)Nc3ccc(C(F)(F)F)cc3)c2O[C@@H]1CN(C)S(=O)(=O)c1ccc(Cl)cc1	i
C[C@@H]1CCCCO[C@@H](CN(C)C(=O)Nc2ccc(F)cc2)[C@@H](C)CN([C@H](C)CO)C(=O)c2cc(NC(=O)Nc3ccc4c(c3)OCO4)ccc2O1	i
CC(C)NC(=O)N(C)C[C@@H]1Oc2ccc(NS(C)(=O)=O)cc2CC(=O)N([C@@H](C)CO)C[C@H]1C	i

(list continues)
SMILES	FGF22 binding
C[C@@H]1CCCCO[C@H](CN(C)S(=O)(=O)c2ccc(F)cc2)[C@@H](C)CN([C@@H](C)CO)C(=O)c2cc(NS(=O)(=O)c3ccc(F)cc3)ccc2O1	i
CCN1[C@H](C(=O)NC2Cc3ccccc3C2)[C@@H](CO)[C@@H]2Cn3c(cccc3=O)[C@@H]21	i
CN(C)CCCNC(=O)[C@H]1[C@H](CO)[C@H]2Cn3c(ccc(C4=CCCC4)c3=O)[C@H]2N1CCC(F)(F)F	i
Cc1noc(C)c1S(=O)(=O)N(C)C[C@@H]1OCCCC[C@@H](C)Oc2ccc(NS(=O)(=O)c3ccccc3)cc2C(=O)N([C@@H](C)CO)C[C@@H]1C	i
C[C@H](NC(=O)C[C@H]1CC[C@H]2[C@@H](COC[C@@H](O)CN2C(=O)Nc2ccccc2)O1)c1ccccc1	i
CCCNC(=O)N1CC2(CCN(C(=O)c3cccnc3)CC2)c2c([nH]c3cc(OC)ccc23)[C@H]1CO	i
CCCc1cn(CC[C@H]2CC[C@H](NC(=O)C3CCOCC3)[C@@H](CO)O2)nn1	i

These rows are one share of the data, so the mix of outcomes need not match the whole.
